Source: PubChem
H5N1 CPE = MDCK cell protection from H5N1 avian flu; cytopathic effect, luminescence, 72 h; stronger effect = higher value; no value below 0 was filed and about half of the inactive calls have no number; reference of the scale not given here; inhibition, % at 50 µM; 0.07% of 96,000 active; in the data active = inhibition above about 25%
Starred values were filed as active, the others as inactive; i = inactive. Only part of the results is shown; count on the stated rates, not on these rows.

SMILES	H5N1 CPE
c1ccc(OCCSc2nnnn2-c2ccccc2)cc1	i
O=C(c1cccc(C(F)(F)F)c1)N1CCCCCC1	1.6
COC(=O)c1[nH]c2cccc(OC)c2c1NC(=O)CN(C)CC1OCCO1	0.6
O=C1N(CN2CCN(c3cccc(Cl)c3)CC2)c2ccccc2C12OCCCO2	i
CCSc1ccc2nnc(-c3cccc(F)c3)n2n1	i
Cc1ccc2nc(NCCCN3CCOCC3)c(C=NCCCN3CCOCC3)c(=O)n2c1	1.7
O=C(NCCc1c[nH]c2ccccc12)C(F)(F)C(F)F	0.3
Cc1ccc(C(=O)CSc2nc3cccnc3n2C)cc1	0.2
O=C(CC1CCCC1)Nc1nc2ccccc2[nH]1	i
CCOC(=O)c1c(C)sc2c1N(C(C)=O)c1cc(Cl)ccc1S2	0.9
O=c1cc(N2CCOCC2)[nH]c(=O)n1C1CCCCC1	0.2
CC1=NN(C(=O)c2cccc(Cn3nc(C)c([N+](=O)[O-])c3C)c2)C(O)(C(F)(F)F)C1 (configuration not stated)	3.7
COC(=O)C1C2C=CC3(CN(C(C)C)C(=O)C13)O2 (configuration not stated)	i
CC(C)Oc1ccc(C(=O)N/N=C/c2ccc(-c3ccc(S(=O)(=O)Nc4ncccn4)cc3)o2)cc1	3.0
CSc1ccccc1NC(=S)Nc1ccccc1C(F)(F)F	i
COc1ccc(-c2nc3ccccc3c(=O)o2)cc1OC	0.6
Cn1c(CCCOc2ccc(Cl)cc2Cl)nnc1SCC(=O)Nc1nccs1	0.3
CN1CCN(CCC(=O)Nc2ccccc2Cl)CC1	i
COc1ccc(/C=N/NC(=O)CC(=O)NCCc2ccccc2)cc1OC	0.2
N/C(=N\OC(=O)c1ccccc1[N+](=O)[O-])c1cccnc1	0.1
Cc1ccccc1C(=O)N=c1sccn1C	0.1
COc1ccc(NC(=O)CCS(=O)(=O)c2ccc3c(c2)CCCN3C(C)=O)cc1	0.6
Nc1ncnc(N(c2ccccc2)C2CCCCC2)c1[N+](=O)[O-]	0.1
COc1ccc(Nc2sc(C(=O)c3ccc(Cl)cc3)c(N)c2C(=O)Nc2ccccc2OC)cc1	i
Cc1[nH]n(-c2ccc([N+](=O)[O-])cc2)c(=O)c1C=NCCN1CCN(C(=O)c2ccc(Br)cc2)CC1	i
Cc1ccc(SCCCCN2C(=O)NC(C)(C)C2=O)cc1	i
O=C(C1CCN(c2ncnc3c2sc2cccc(F)c23)CC1)N1CCOCC1	1.6
CCC(C)(C(=O)NC1CCCC1)N(C(=O)CNC(C)=O)c1ccccc1 (configuration not stated)	0.2
COc1ccc2nc(C)c3cc(C)oc3c2c1	1.1
CCn1cc(C(=O)O)c(=O)c2cc(S(=O)(=O)N(C)C)ccc21	i
CCS(=O)(=O)N1CCC(C(=O)NCCC2=CCCCC2)CC1	0.7
CCc1nnc(NC(=O)[C@@H](NC(=O)c2cccc(S(=O)(=O)N(CC)CC)c2)C(C)C)s1	0.2
CCOc1ccc(Cl)cc1S(=O)(=O)N1CCN(c2ccc(C)c(C)c2)CC1	i
C=Cn1c(N2CCOCC2)nc2c1c(=O)[nH]c(=O)n2C	1.1
CCCN1CCN(c2nc3c([nH]2)c(=N)ncn3CC(O)CO)CC1 (configuration not stated)	i
CN(C(=O)C1CCOC1)c1nnc(-c2ccccn2)s1 (configuration not stated)	i
CCOC(=O)c1c(CN2CCCCC2)n(C)c2ccc(OC)c(S(=O)(=O)c3ccccc3)c12	i
O=C(Nc1cnn(C23CC4CC(CC(C4)C2)C3)c1)c1cc(-c2ccccc2)on1	0.8
O=[N+]([O-])c1ccccc1C1Nc2cccc3cccc(c23)N1	1.8
COCCNC(=O)C(c1ccc(F)cc1)N(CC1CCCO1)C(=O)CCC(=O)Nc1ccccn1 (configuration not stated)	i
O=S(=O)(c1ccc(Cl)cc1)N1CCC(O)(c2cccnc2)CC1	1.3
COc1ccc(C2CC(=O)c3sc(N)nc3C2)cc1 (configuration not stated)	0.6
CCCCCC(=O)Nc1ccc2oc(-c3cncc(Br)c3)nc2c1	i
C=CCn1c(COc2ccccc2)nnc1SCC(=O)C(C)(C)C	i
O=[N+]([O-])c1nn(-c2ccc3c(c2)OCCO3)n(O)c1=NC1CCCCC1	i
COc1ccc(/C=N/NC(=O)c2cccc([N+](=O)[O-])c2)cc1OC(=O)c1ccc(C)cc1	0.6
CCOC(=O)C1=C(CC)NC2=C(C(=O)CCC2)C1c1ccc(OC)c(OC)c1 (configuration not stated)	0.6
Cn1nc(C(=O)N2CCc3ccccc3C2)c2ccccc2c1=O	2.1
CCOC(=O)CSc1nc2c(sc(=S)n2-c2ccccc2OC)c(=O)n1Cc1ccco1	3.7
Cn1cc(S(=O)(=O)N2CCN(c3ccccc3F)CC2)c(=O)n(C)c1=O	1.2
O=C(c1ccc2c(c1)OCO2)N1CCCN(C(=O)c2ccc3c(c2)OCO3)CC1	i
O=C(NCc1cccs1)C1CCCN1S(=O)(=O)c1ccccc1F (configuration not stated)	0.6
O=C(O)C1NCCc2ccccc21 (configuration not stated)	0.9
Cc1nnc(SCC(=O)N2c3ccccc3CC2C)s1 (configuration not stated)	i
O=C(/C=C/c1ccco1)NC(=S)Nc1ccccn1	2.5
Cc1ccc(NC(=O)NNc2cccc(Cl)n2)cc1	i
CN(C)CCCN1C(=O)c2oc3ccc(Cl)cc3c(=O)c2C1c1cccnc1 (configuration not stated)	1.9
CC(=O)c1ccc(NC(=O)Nc2cccc(Cl)c2)cc1	i
Cc1ccc(S(=O)(=O)N2CCN(C3CCC(c4ccccc4)CC3)CC2)cc1 (configuration not stated)	i
COc1cc(C(C#N)N2N=C(c3ccccc3)CC2c2ccccc2)ccc1O (configuration not stated)	1.7

The results go on.
SMILES	H5N1 CPE
CCOC(=O)c1cc2c(c(CSc3nc4ccccc4c(=O)n3Cc3ccco3)c1)OCOC2	0.1
CCc1ccc(S(=O)(=O)NCCc2csc(-c3ccccc3)n2)s1	0.4
Cc1ccc(C(=O)CCC(=O)Nc2cccc(C(F)(F)F)c2)cc1	i
CN(C)/C=N/c1c(C#N)cnn1-c1ccc(C(F)(F)F)cn1	i
CC(C)NC(=O)NC1C2CC3CC(C2)CC1C3 (configuration not stated)	0.8
N#Cc1cc2sc3nc4ccccc4n3c2cc1C#N	i
Nc1nonc1NC(=O)CSc1ncccc1C(=O)O	0.8
CC(C)Oc1cccc(C(=O)Nc2ccc(N3CCN(S(C)(=O)=O)CC3)cc2)c1	i
O=C(OC(C(=O)NCc1cccs1)c1ccc(F)cc1)c1ccco1 (configuration not stated)	i
COc1ccccc1C(=O)Nc1ccc2oc(-c3ccc(F)cc3)nc2c1	i
COc1ccccc1C(=O)Nc1cccc(-c2cn3ccsc3n2)c1	i
COc1ccccc1OCc1nnc(SCCN2CCOCC2)o1	1.3
O=C(CSc1nnc(COc2ccccc2Cl)o1)NC(=O)NC1CCCC1	1.5
Cn1c(O)c(C(=N)COc2ccccc2)c(=O)n(C)c1=O	i
CN(Cc1ccccc1)C(=O)CSc1nnc(-c2ccco2)n1-c1ccccc1	i
O=C(NCC12CC3CC(CC(C3)C1)C2)c1nc2ncccn2n1	i
Cc1ccc(C)c(OCCCC(=O)Nc2nccs2)c1	i
COCCn1nnnc1C(c1cccs1)N1CCN(c2cc(C)ccc2C)CC1 (configuration not stated)	i
O=C(NCc1ccccc1)C1CCCN(S(=O)(=O)c2cccs2)C1 (configuration not stated)	0.2
CC(C)CN(CC(C)C)S(=O)(=O)N1CCC(C(=O)NC2CCCCCCC2)CC1	i
O=S(=O)(c1ccc(Oc2ccc(-c3nnco3)cc2)nc1)N1CCC(Cc2ccccc2)CC1	i
CCOC(=O)N1CCN(C(=O)CS(=O)Cc2nc(-c3ccc(C)cc3)oc2C)CC1 (configuration not stated)	0.7
CCCCCNCc1cccn1C	1.2
COC(=O)c1sccc1NC(=O)c1c(C)noc1C	6.3
O=S(=O)(Nc1cccc(-c2cn3ccsc3n2)c1)c1ccc(F)cc1	0.7
Cc1cc(N2CCOCC2)nc2ccc(NC(=O)C3CCC(C)CC3)cc12 (configuration not stated)	1.1
Cc1ccc2c(n1)sc1c(-c3ccc(Br)cc3)c(C#N)c(N)nc12	i
C=CCSc1nc2ccccc2n1C(=O)/C=C/c1cc(OC)c(OC)c(OC)c1	1.4
COc1ccc(OC)c(NC(=O)CCN2CCN(c3ccccc3F)CC2)c1	0.1
COc1ccc(CCNC(=O)CCSc2nc(-c3ccco3)cc(C(F)(F)F)n2)cc1	i

Six entries from above, with bars between the fields:
molecule | H5N1 CPE
Cc1nnc(SCC(=O)N2c3ccccc3CC2C)s1 (configuration not stated) | i
c1ccc(OCCSc2nnnn2-c2ccccc2)cc1 | i
COc1ccc(-c2nc3ccccc3c(=O)o2)cc1OC | 0.6
Cc1ccccc1C(=O)N=c1sccn1C | 0.1
Cc1[nH]n(-c2ccc([N+](=O)[O-])cc2)c(=O)c1C=NCCN1CCN(C(=O)c2ccc(Br)cc2)CC1 | i
COc1ccccc1OCc1nnc(SCCN2CCOCC2)o1 | 1.3

(continued)
SMILES	H5N1 CPE
COC(=O)Cc1cc(=O)[nH]c(/N=C(\N)Nc2ccc(C)cc2C)n1	i
Cc1c(C)c2c(C)nn(-c3ccccc3)c2[nH]c1=O	i
Cc1ccc(S(=O)(=O)C2(C(=O)Nc3ccc(F)cc3)CC2)cc1	i
COc1ccc(/C=c2/sc3n(c2=O)NC2(c4ccccc4)N(C)C(=O)N(C)C2(c2ccccc2)N=3)cc1 (configuration not stated)	0.8
Cc1ccc(NC(=O)C2=C(O)c3sccc3N(C)S2(=O)=O)cc1	1.9
Nc1ncc2c(n1)CC(c1ccco1)CC2=O (configuration not stated)	13
CCCc1nnc(NC(=O)Cn2cnc3ccccc3c2=O)s1	0.2
Cc1ccc(C(c2nnnn2C(C)(C)C)N2CCN(C3CCCC3)CC2)cc1 (configuration not stated)	0.8
C=CCn1cnc2c(NCc3ccccc3)ncnc21	0.1
Cc1ccc(C(=O)N2CCN(c3ncccn3)CC2)o1	1.7
Cc1cccc2cc3c(N)c(C(=O)Nc4ccc(N5CCOCC5)cc4)sc3nc12	i
CCCNC(=O)COC(=O)c1ccccc1OCc1ccc(Cl)cc1	i
COc1ccc(-n2c(SCC(=O)N3CCN(c4ccccc4)CC3)nc3c(c2=O)SCC3)cc1	i
COc1ccc(S(=O)(=O)CCC(=O)NCCc2ccc(Cl)cc2)cc1	1.9
N=c1nc(-c2ccccc2)ccn1O	i

6 entries from above, sorted by heavy-atom count, smallest number first:
SMILES	H5N1 CPE
Nc1ncc2c(n1)CC(c1ccco1)CC2=O (configuration not stated)	13
C=CCn1cnc2c(NCc3ccccc3)ncnc21	0.1
COC(=O)Cc1cc(=O)[nH]c(/N=C(\N)Nc2ccc(C)cc2C)n1	i
COc1ccc(S(=O)(=O)CCC(=O)NCCc2ccc(Cl)cc2)cc1	1.9
Cc1cccc2cc3c(N)c(C(=O)Nc4ccc(N5CCOCC5)cc4)sc3nc12	i
COc1ccc(/C=c2/sc3n(c2=O)NC2(c4ccccc4)N(C)C(=O)N(C)C2(c2ccccc2)N=3)cc1 (configuration not stated)	0.8

The results go on.
SMILES	H5N1 CPE
O=C(Nc1ncc(Cc2cccc(Cl)c2)s1)c1cccs1	i
O=C(NCc1ccc2c(c1)OCO2)C1CC(c2ccc(Cl)c(Cl)c2)=NO1 (configuration not stated)	i
Cc1ccccc1Nc1c([N+](=O)[O-])ccc2c1=NC1(CCCCC1)N=2	0.6
CCOC(=O)c1oc2cccc(O)c2c1C	i
O=C(NCCN1CCOCC1)C1CC(=O)N(c2ccc(F)c(Cl)c2)C1 (configuration not stated)	0.5
O=C(CSc1nnc(Cc2ccccc2)o1)NCc1ccco1	1.1
O=C(Nc1ccc(-c2cn3ccsc3n2)cc1)C1CCCC1	i
Cc1cc(C)n(C(=O)CN2C(=O)COc3ccccc32)n1	0.5
CCCCCCC(=O)N(O)C1CC(=O)N(c2ccccc2)C1=O (configuration not stated)	0.6
Cc1nn2c(N3CCN(C4CCCC4)CC3)cc(C(C)(C)C)nc2c1-c1ccccc1	i
O=C(CCS(=O)(=O)c1cccc2nonc12)NCCc1ccccc1Cl	0.3
Cc1cc(C(=O)CSc2nc3ccccc3o2)c(C)n1C1CC1	i
Cn1c(CN2CCOCC2)nc2cc(NC(=O)c3ccccc3Cl)ccc21	i
COc1ccc(C/C(O)=C(\C#N)c2nc3ccccc3[nH]2)cc1OC	0.5
CCOc1cc2[nH]c(=S)n(Cc3ccc(C)o3)c(=O)c2cc1OCC	i
CNC(=O)NC(=O)CSc1ncc(C(F)(F)F)cc1Cl	1.3
CCn1nnnc1SCC(=O)NCc1ccco1	0.5
CCCCC(c1nnnn1CC1CCCO1)N1CCN(c2cc(Cl)ccc2C)CC1 (configuration not stated)	i
CCCOc1ccc(CSc2ncn[nH]2)cc1	i
Cc1nnc(N2C(=O)C(O)=C(C(=O)c3ccco3)C2c2ccc(F)cc2)s1 (configuration not stated)	1.3
O=C(CSc1nnc(C2CC2)n1-c1ccccc1)NCc1ccco1	0.7
CS(=O)(=O)N1CCC(C(=O)c2cccc(Cl)c2)CC1	0.2
COc1cc2c(cc1OC)C1=C(C#N)CCC(=O)N1CC2	1.6
O=S(=O)(NCc1ccc(F)cc1)c1ccc2c(c1)OCCO2	0.7
CCn1c(SCC(=O)N2CCN(c3ccccc3)CC2)nc2c(c1=O)SC(C)C2 (configuration not stated)	1.3
CCn1c(=O)c2cc(S(=O)(=O)NCc3ccccc3)ccc2n(CC)c1=O	i
COc1ccc2[nH]cc(CCNC(=O)C3CCCNC3=O)c2c1 (configuration not stated)	0.5
CCOC(=O)c1cccc(NC(=O)CCNS(=O)(=O)c2ccc3c(c2)CCN3C(=O)CC)c1	0.2
Cc1ccc2c(c1)sc[n+]2Cc1ccccc1	1.5
CCCn1nnnc1SCC(=O)N(C(C)C)C(C)C	i
O=C1c2ccccc2C(=O)N1Cc1nc2ccccc2c(=O)n1CCCn1ccnc1	2.1
COc1ccc(/C=N/n2cncn2)cc1COc1ccc(NC(C)=O)cc1	4.3

Look-ups from above.
Value of CNC(=O)NC(=O)CSc1ncc(C(F)(F)F)cc1Cl under H5N1 CPE: 1.3
Value of CCn1c(SCC(=O)N2CCN(c3ccccc3)CC2)nc2c(c1=O)SC(C)C2 (configuration not stated) under H5N1 CPE: 1.3
Value of O=S(=O)(NCc1ccc(F)cc1)c1ccc2c(c1)OCCO2 under H5N1 CPE: 0.7
